Screening results as filed in PubChem.
Polio RdRp inh = poliovirus RdRp elongation inhibitors, primary screen, biochemical, fluorescence polarization, total intensity | AID 588519, 2011 | 150,000 compounds, 0.66% hits | poliovirus polymerase elongation; active compounds read low | % elongation, % (compound at 16.7 µg/mL) | Genome polyprotein (Poliovirus type 1 (strain Mahoney)), P03300; in the data active = % elongation below about 90%; also: some results filed as inactive read as strong as hits
Target sequence (P03300 1749-2209 limits assumed): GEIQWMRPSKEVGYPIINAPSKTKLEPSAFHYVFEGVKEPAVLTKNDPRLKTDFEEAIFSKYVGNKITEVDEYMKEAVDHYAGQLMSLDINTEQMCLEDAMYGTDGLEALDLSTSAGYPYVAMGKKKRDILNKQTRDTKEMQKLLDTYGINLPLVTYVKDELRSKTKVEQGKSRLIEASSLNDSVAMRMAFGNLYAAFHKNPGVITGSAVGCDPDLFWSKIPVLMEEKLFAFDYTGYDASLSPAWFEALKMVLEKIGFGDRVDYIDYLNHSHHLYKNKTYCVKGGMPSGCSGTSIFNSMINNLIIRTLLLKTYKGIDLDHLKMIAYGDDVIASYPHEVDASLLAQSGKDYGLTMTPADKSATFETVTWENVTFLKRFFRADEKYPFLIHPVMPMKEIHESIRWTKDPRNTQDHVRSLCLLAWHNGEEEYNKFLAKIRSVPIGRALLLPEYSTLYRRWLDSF
Polio RdRp inh intensity = recorded beside Polio RdRp inh, whose call it bears; % elongation; measured here: total intensity read-out; formula for this scale not given here;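 total fluorescence in place of polarization; lower means less elongation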
* = called active by the depositor. The list is partial; rates above refer to the full screens.

compound,Polio RdRp inh,Polio RdRp inh intensity
COc1cccc(C(=O)Nc2nc(-c3nnn(-c4cc(C)ccc4C)c3C)ns2)c1,105,110
COc1ccc(CCn2c(=O)c3cccnc3n(CC(=O)Nc3c(C)cc(C)cc3C)c2=O)cc1OC,107,111
Cc1c(CC(=O)NCc2ccccc2Cl)c(=O)oc2cc(O)ccc12,100,104
CC(C)NC(=O)C1CCCN(c2ncnc3c2nc2n3CCCCC2)C1 (stereo not given),101,108
CCCCCOC(=O)CSc1nc2sc3c(c2c(=O)n1-c1ccccc1)CC(C)(CC)OC3 (stereo not given),109,108
O=C(OCc1cc(=O)n2nc(C3CC3)sc2n1)c1ccc(NC(=O)c2ccccc2F)cc1,107,131
COc1ccccc1NC(=O)Cn1nnc(C(=O)Nc2ccccc2Br)c1N,113,114
COc1ccc(CCNC(=O)Cn2nc(C)n3c(cc4occc43)c2=O)cc1OC,100,104
Cc1ccc(C)c(N2CCN(C(=O)CS(=O)(=O)c3cccc4nsnc34)CC2)c1,104,99
Cn1nnnc1SCCNCc1cc(Br)ccc1OCc1ccccc1Cl,104,104
COc1ccc2c(c1)c1c(c(=O)n(-c3ccc(C)cc3)c(=O)n1CC(=O)Nc1cc(C)ccc1C)n2C,107,104
CCCN(CCC)CCCNC(=O)c1cn(CC)c2ccc(S(=O)(=O)N3CCc4ccccc4C3)cc2c1=O,103,102
CCOc1cccc(NC(=O)C2CC(=O)N(C)C(=Nc3cccc(OC)c3)S2)c1 (stereo not given),106,107
CCCCn1c(=N)c(S(=O)(=O)c2ccccc2)cc2c(=O)n3cccc(C)c3nc21,105,112
Cc1cn2c(=O)cc(COC(=O)c3cccc(NC(=O)c4ccccc4Cl)c3)nc2s1,109,109
COc1ccc(OC)c(NC(=O)CSc2ncc3c(n2)-c2ccccc2N(C)S3(=O)=O)c1,108,117
Cn1cc(S(=O)(=O)c2ccccc2)c(=O)c2cc(F)c(N3CCOCC3)cc21,103,100
COC(=O)c1cnn(-c2ccc(C(=O)Nc3ccc(C(C)=O)cc3)cc2)c1N,106,103
O=C(c1cccc([N+](=O)[O-])c1)N1c2ncnn2C2(CCCCC2)[C@@H]2CCCC[C@@H]21,103,110
COc1ccc(NCc2cc3cc4c(cc3n(CC(=O)Nc3cc(C)cc(C)c3)c2=O)OCO4)cc1,105,117
COc1ccc(CCNc2ncnc3c2c(-c2ccccc2)cn3-c2ccc(Cl)cc2)cc1OC,108,105
CCOc1ccc(CNCCSc2nnnn2C)cc1OC,109,110
Cc1ccc(-c2cn3c4c(=O)n(C)c(=O)n(C)c4nc3n2-c2cccc(Cl)c2)cc1,99,90
Cc1cc(C)c(NC(=O)CSc2nc3c([nH]c4ccccc43)c(=O)n2C)c(C)c1,111,106
CCOc1ccccc1NC(=O)C(c1ccccc1)N1Cc2ccccc2C1=O (stereo not given),110,113
Clc1cccc(-c2ccc(CNCCSc3nnnn3-c3ccccc3)o2)c1,113,111
CC1CCN(C(=O)c2ccc3c(c2)N(Cc2ccccc2)C(=O)c2ccccc2S3(=O)=O)CC1,105,108
Cn1cc(S(=O)(=O)N2CCCCC2)cc1C(=O)Nc1ccc(OC(F)(F)F)cc1,106,108
COc1ccc(-c2c3c(nc4sc(C(=O)Nc5ccccc5F)c(N)c24)CC(C)(C)CC3=O)cc1,106,102
COc1ccc(CCNC(=O)c2cc(S(=O)(=O)N3CCCC(C)C3)cn2C)cc1OC (stereo not given),109,115

Another view of part of the listing above.
Cc1cc(C)c(NC(=O)CSc2nc3c([nH]c4ccccc43)c(=O)n2C)c(C)c1
  Polio RdRp inh = 111	Polio RdRp inh intensity = 106
Clc1cccc(-c2ccc(CNCCSc3nnnn3-c3ccccc3)o2)c1
  Polio RdRp inh = 113	Polio RdRp inh intensity = 111

The listing continues.
compound,Polio RdRp inh,Polio RdRp inh intensity
CCc1ccc2oc(-c3cccc(NC(=O)COc4ccccc4Cl)c3)nc2c1,107,112
COC(=O)c1ccc(NC(=O)NC(C)c2c(-n3cccc3)sc(C)c2C)cc1 (stereo not given),113,111
COc1ccc(-c2nc(SCC(=O)NC(C)CCc3ccccc3)n[nH]2)cc1 (stereo not given),107,110
Cc1cc(C)cc(NC(=O)C(=O)NCC(c2cccnc2)N2CCc3ccccc32)c1 (stereo not given),114,118
CCOC(=O)c1c(C)oc2ncnc(Nc3ccc(CC)cc3)c12,114,113
CC1Cc2cc(S(=O)(=O)N(Cc3ccccc3)C(C)C)ccc2N1C(=O)C1CCC1 (stereo not given),114,111
COc1ccc(CCNC(=O)C2c3ccccc3C(=O)N2Cc2ccccc2)cc1OC (stereo not given),109,107
CC(=O)c1cccc(NC(=O)CSc2nc3ccccc3nc2Cc2ccc(F)cc2)c1,104,103
Cc1ccc(NC(=O)c2ccc(=O)n(CC(=O)Nc3c(C)cc(C)cc3C)n2)cc1,108,108
Cc1ccc2c(c1)c1c(c(=O)n(-c3cccc(Cl)c3)c(=O)n1CC(=O)Nc1c(C)cccc1C)n2C,106,111
CCc1cccc2c(-c3ccc(F)cc3)nc(SCC(=O)Nc3ccccc3)nc12,101,105
CCCOC(=O)c1ccc(NC(=O)Cn2nnc3sc4c(c3c2=O)CCC(C(C)(C)C)C4)cc1 (stereo not given),109,116
COC(=O)c1c(-c2cccs2)csc1NC(=O)c1cccc(Cl)c1,82*,78*
Cc1c(NC(=O)c2nc3ccccc3n(C)c2=O)cccc1[N+](=O)[O-],115,112
CCOCCCNC(=O)CN1C(=O)COc2ccc(S(=O)(=O)N3CCCCCC3)cc21,106,112
Cc1ccc(NC(=O)N2CCC(n3c(C)nc4cccnc43)CC2)c(Cl)c1,107,107
CC1CCN(c2ccc(-c3nc(C(C)C)no3)cc2[N+](=O)[O-])CC1,104,107
COc1ccc(CCC(=O)N2CCc3c([nH]c4ccccc34)C2c2ccc(F)cc2)cc1 (stereo not given),115,112
Cc1ccc(-n2c(=O)c3sccc3n(Cc3cc(=O)n4ccccc4n3)c2=O)cc1,107,112
CCOc1ccccc1NC(=O)c1c(NC(=O)C(C)Oc2cccc(Cl)c2)sc2c1CCCCC2 (stereo not given),98,101

Continuation:
compound | Polio RdRp inh | Polio RdRp inh intensity
COc1ccc(OC)c(C2N=C(N)Nc3nc4ccccc4n32)c1 (stereo not given) | 99 | 101
COc1ccc(NC(=O)CSc2nc3ccccc3n2CC(=O)N2CCCCC2C)cc1 (stereo not given) | 104 | 105
Cc1ccc(NC(=O)CSc2nc3c(c(=O)[nH]2)CN(Cc2ccccc2)CC3)cc1Cl | 115 | 113
Nc1ncc(S(=O)(=O)NCc2ccc(F)cc2)cn1 | 110 | 113
CCCn1c2ccccc2c2cnn(CC(=O)N(CC)c3cc(C)ccc3C)c(=O)c21 | 105 | 111
COc1cc(OC)cc(C(=O)Nc2cccc(-c3cn4cccnc4n3)c2)c1 | 99 | 95
Cc1ccc(NC(=O)c2cc(S(=O)(=O)NC3CCCCC3)ccc2F)cc1Cl | 109 | 109
CCc1nc2sc3c(N4CCCCC4)ncnc3c2c2c1CCCC2 | 105 | 101
CC(C)c1ccc(CNCCSc2nnnn2C)cc1 | 107 | 107
COc1ccc(CCCc2nnc(SCC(=O)Nc3ccccc3F)o2)cc1C | 104 | 104
CCC(C)NC(=O)c1cc2c(Cl)nc3ccc(C)cc3c2s1 (stereo not given) | 101 | 104
Cc1ccc(-c2c(C(=O)N(C)Cc3ccccc3)oc(=O)c3ccccc23)cc1 | 113 | 109
COc1ccc(-c2cn3c(n2)sc2cc(C(=O)NCc4ccccc4)ccc23)cc1 | 108 | 106
CCC(=O)Nc1ccccc1-c1nc2ccccc2n(Cc2cccc(Br)c2)c1=O | 107 | 108
CCOc1ccc(CCNC(=O)Cn2nc(C)n3c(cc4occc43)c2=O)cc1OCC | 107 | 109
CC(=O)Nc1ccc(S(=O)(=O)Nc2cc(-c3cn4ccccc4n3)ccc2C)cc1 | 105 | 105
Cc1ccc(Nc2c(-c3ccc(N4CCOCC4)cc3)nc3ncccn23)c(C)c1 | 112 | 117
CCOc1ccccc1NC(=O)N1CCc2cc(S(=O)(=O)N3CCC(C)CC3)ccc21 | 104 | 107
Cc1ccc(Cl)cc1N1CCN(C(=O)c2cnc3c(-c4ccc(F)cc4)c(C)nn3c2C)CC1 | 109 | 116
Cc1ccc(S(=O)(=O)c2nnn(CC(=O)Nc3ccccc3C)c2N)cc1 | 102 | 108
O=c1c2ccccc2nc(/C=C\c2ccc(F)cc2)n1-c1ccccc1F | 114 | 109
CC(C)CC(=O)Nc1nc2nc(-c3ccccc3)cc(=O)n2[nH]1 | 102 | 103
CCc1ccccc1NC(=O)C1=CC(c2ccc(OC)c(OC)c2)=NS(=O)(=O)N1C | 112 | 117
COc1ccc(OCc2ccc(-c3nc(C#N)c(N4CCC(C(N)=O)CC4)o3)o2)cc1 | 113 | 105
CN(CC(=O)Nc1ccc(OC(F)(F)F)cc1)S(=O)(=O)c1ccc2c(c1)CCC(=O)N2 | 110 | 108
Cc1ccccc1CNC(=O)C1CCCN(S(=O)(=O)N(C)c2ccc(F)cc2)C1 (stereo not given) | 109 | 111
Cc1ccc(C)c(NC(=O)CN2CCCN(Cc3cccc(Cl)c3)S2(=O)=O)c1 | 108 | 106
COc1ccc(N2CC(NC(=O)C(c3ccccc3)c3ccccc3)CC2=O)cc1 (stereo not given) | 108 | 109
Cc1cc2oc(C(=O)Nc3ccc(S(=O)(=O)N(C)Cc4ccccc4)cc3)cc(=O)c2cc1C | 112 | 115
CCN1C(=O)c2cccc3c(S(=O)(=O)Nc4ccc(O)c(C(=O)O)c4)ccc1c23 | 104 | 104
CCSc1ncc(Cl)c(C(=O)N2CCN(c3ccc(OC)cc3)CC2)n1 | 120 | 121
CC(=O)c1ccc(S(=O)(=O)Nc2ccc(-c3ccc(N4CCCCC4)nn3)cc2)cc1 | 113 | 112
CNC(=O)C1CCN(Cc2cc3ccccc3n2Cc2cccc(C)c2)CC1 | 109 | 107
O=C(NCCCN1CCN(c2ccccc2F)CC1)c1cc2c(Cl)nc3ccccc3c2s1 | 107 | 111
Cc1ccc(C(=O)Nc2ccc(C(=O)OCc3cc(=O)n4nc(C5CC5)sc4n3)cc2)cc1 | 105 | 108
Cc1ccc(C)c(N2CCN(C(=O)Cn3cnc4nc5c(cc4c3=O)CCCC5)CC2)c1 | 108 | 112
CN(c1ccccc1)S(=O)(=O)c1ccc(NC(=O)c2nc(S(C)(=O)=O)ncc2Cl)cc1 | 114 | 114
O=C(COc1ccccc1)Nc1c(C(=O)N2CCN(c3ccc(F)cc3)CC2)oc2ccccc12 | 108 | 104
CCN(c1cc(C)cc(C)c1)S(=O)(=O)c1nnc(NC(=O)c2cccs2)s1 | 110 | 117
Cc1noc2ncnc(NCc3cccc(Cl)c3)c12 | 104 | 101

Arranged by count of non-hydrogen atoms (ascending): 4 of the compounds above
compound | Polio RdRp inh | Polio RdRp inh intensity
Cc1ccc(C)c(NC(=O)CN2CCCN(Cc3cccc(Cl)c3)S2(=O)=O)c1 | 108 | 106
COc1ccc(OCc2ccc(-c3nc(C#N)c(N4CCC(C(N)=O)CC4)o3)o2)cc1 | 113 | 105
Cc1ccc(C)c(N2CCN(C(=O)Cn3cnc4nc5c(cc4c3=O)CCCC5)CC2)c1 | 108 | 112
O=C(COc1ccccc1)Nc1c(C(=O)N2CCN(c3ccc(F)cc3)CC2)oc2ccccc12 | 108 | 104

(next part)
compound | Polio RdRp inh | Polio RdRp inh intensity
Cc1ccc(S(=O)(=O)NC2(C(F)(F)F)NC(=O)N(CCc3ccccc3)C2=O)cc1 (stereo not given) | 103 | 104
CCN(Cc1ccccc1)C(=O)Cn1c(=O)n(-c2ccc(Cl)cc2)c(=O)c2c(C)c(C)sc21 | 110 | 108
CC(C)c1nn2c(=O)cc(COC(=O)c3cccs3)nc2s1 | 103 | 100
O=S1(=O)c2ccccc2N(Cc2ccc(Cl)cc2F)c2ccccc21 | 105 | 110
Cc1ccc(Cl)cc1NC(=O)Cn1c(=O)n(CCC(=O)N2CCc3ccccc3C2)c(=O)c2ccccc21 | 106 | 99
Cc1ccccc1CN1c2ccccc2-c2nc(SCC(=O)c3ccccc3)ncc2S1(=O)=O | 109 | 110
CCOC(=O)c1[nH]c(C)c(CCC(=O)N2CCN(c3cccc(OC)c3)CC2)c1C | 110 | 109
C=C(C)Cn1c(SCC(=O)Nc2ccccc2C)nc2sc3c(c2c1=O)CCCC3 | 102 | 102
COc1ccc(C2N3CC4(C)CN2CC(c2ccccc2)(C3)C4=O)cc1OC (stereo not given) | 105 | 105
CCCCCn1c(CCCNC(=O)c2ccccc2)nc2ccccc21 | 104 | 106
Cn1c2ccccc2c2c(C(=O)N3CCN(c4ccc(F)cc4)CC3)cn(C3CCCCC3)c(=O)c21 | 115 | 113
CCn1c(=NC(=O)c2ccc3c(c2)OCCO3)sc2c(C)ccc(OC)c21 | 103 | 99
O=C(CC1C(=O)N(c2ccc(F)cc2)C(=O)N1Cc1ccc2c(c1)OCO2)Nc1ccc(Cl)cc1 (stereo not given) | 108 | 107
COc1ccc(C2CC(=O)N(CC(=O)Nc3ccc(C)c(Cl)c3)c3ccccc3S2)cc1OC (stereo not given) | 106 | 112
Cc1nnc(SCc2nc(-c3ccc(Cl)cc3)no2)n1-c1ccc(F)cc1 | 106 | 94
CCc1ccc(NC(=O)CCCc2nnc3n(CC(C)C)c(=O)c4sccc4n23)cc1 | 114 | 118
CC(=O)c1cccc(NC(=O)CSc2nnc3ccc(-c4ccc(C)cc4)nn23)c1 | 100 | 107
COc1ccc(C)cc1NC(=O)CSc1nc(=O)[nH]c2c1CCCC2 | 110 | 102
CCn1cc(C(=O)NCCc2ccc(Cl)cc2)c(=O)c2cc(S(=O)(=O)N(C)C3CCCCC3)ccc21 | 109 | 110
O=S(=O)(NCc1nc2cccnc2n1Cc1ccc(F)cc1)c1ccc(Cl)s1 | 108 | 117
CCc1ccc(CNc2ccc3c(c2)ncn3C(C)(C)C)cc1 | 106 | 111

In the list so far, three have bromine.
compound | Polio RdRp inh | Polio RdRp inh intensity
COc1ccccc1NC(=O)Cn1nnc(C(=O)Nc2ccccc2Br)c1N | 113 | 114
Cn1nnnc1SCCNCc1cc(Br)ccc1OCc1ccccc1Cl | 104 | 104
CCC(=O)Nc1ccccc1-c1nc2ccccc2n(Cc2cccc(Br)c2)c1=O | 107 | 108
